LASV entry inh: blocks Lassa virus binding to or entry into cells; AID 540256; 1.2% of 300,000 active; Lassa virus pseudotype entry inhibition, cell reporter; control for the full effect not named in the record; Potency, µM (doses to about 37.9 µM), for inactives: top-dose activity change, negative = inhibition, most hits filed as inhibitors; active means well fitted inhibition curve with a large enough effect; inconclusive means small, poorly fitted or top-dose-only effect, or effect the other way; inactive means flat fitted curve, though single readings scatter; tested in HEK293 cells; also: % is scaled to controls: 0 for no effect and ±100 for the full control effect; nearly all actives have a fitted effect of over 50% in size; luciferase read-out
Cruzain inh Det: blocks cruzain activity in presence of Triton detergent. P25779. purified cruzain, Z-FR-AMC fluorescence, 0.01% Triton. Potency, µM, for the others: max response, negative = inhibition, actives largely listed as inhibitors. 0.43% of 200,000 active. AID 1478;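 also: plate controls were neutral wells for no effect and buffer without enzyme for full effect; nearly all actives have a fitted effect of over 40% in size; top concentration of the series not given in the record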
Target sequence (P25779 123-467 limits assumed): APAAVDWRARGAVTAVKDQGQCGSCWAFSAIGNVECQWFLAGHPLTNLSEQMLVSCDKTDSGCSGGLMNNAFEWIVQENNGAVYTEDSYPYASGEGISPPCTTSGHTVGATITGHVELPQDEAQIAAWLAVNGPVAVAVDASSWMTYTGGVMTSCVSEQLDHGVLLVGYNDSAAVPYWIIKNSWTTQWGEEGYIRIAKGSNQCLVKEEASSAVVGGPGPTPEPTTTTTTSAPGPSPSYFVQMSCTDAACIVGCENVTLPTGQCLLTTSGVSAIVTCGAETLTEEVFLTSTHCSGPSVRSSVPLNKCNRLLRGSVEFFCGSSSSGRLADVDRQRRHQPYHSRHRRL
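15 min RT preincubation of 1.5 nM cruzain with compound, then 2 uM Z-FR-AMC added; kinetic AMC fluorescence, 60 s delta. Triton X-100 0.01%, pH 5.5.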
SARS PLP yeast: inhibitors of SARS-CoV papain-like protease in yeast; S. cerevisiae expressing SARS-CoV PLpro, growth rescue; control for the full effect not named in the record; 0.19% of 330,000 active; AID 485353; Potency, µM (series often up to 32.9 µM), for the others: top-dose activity, positive = growth rescue; active means well fitted rising curve with a large enough effect; inconclusive means small, poorly fitted or top-dose-only effect; inactive means no such curve, though single readings can be large or run the other way; also: 0% is about no effect; nearly all actives have a fitted effect of over 55% in size; growth read by luminescence after 48 h
NS1 function inh: inhibitors of influenza NS1 protein function; 0.4% of 270,000 active; S. cerevisiae slowed by influenza A NS1, growth recovery by OD600; Potency, µM (highest dose often 46.1 µM), for inactives: at the highest dose activity, positive = more growth; AID 2326; active means well fitted rising curve with a large enough effect; inconclusive means small, poorly fitted or top-dose-only effect; inactive means no such curve, though single readings can be large or run the other way; also: nearly all actives have a fitted effect of over 50% in size
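Recovery from NS1-induced slow growth read by OD600 in budding yeast switched to galactose assay medium (pH 6.0, -URA) at 1:100 dilution. Compound 23 nl per well; the matching strain lacking NS1 serves as control.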
RE007 growth inh: less growth of the S. pombe RE007 Vpr strain. AID 651644. 0.21% of 360,000 active. S. pombe RE007 Vpr strain, BacTiter-Glo ATP luminescence, 24 h; control for the full effect not named in the record. Potency, µM (series often up to 92.2 µM), without a hit: top-dose activity change, negative = less growth; active = well fitted falling curve with a large enough effect; inconclusive = small, poorly fitted or top-dose-only effect; inactive = no such curve, though single readings can be large or run the other way;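 also: % is scaled to controls: 0 for no effect and ±100 for the full control effect; nearly all actives have a fitted effect of over 50% in size; the assay follows cell death caused by Vpr and the record does not say whether a fall means rescue or toxicity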
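Fission yeast RE007 carrying one integrated HIV-1 vpr copy, seeded at OD 0.01 in PMG+AL medium with 23 nL pinned compound. Grown 24 h at 30 degrees; viability read by BacTiter-Glo luminescence after 5 min.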
Marburg entry inh: Marburg virus entry inhibition | Potency, µM (highest dose often 37.8 µM), for inactives: top-dose activity change, negative = inhibition, most hits filed as inhibitors | AID 540276 | 1.8% of 300,000 active | Marburg virus pseudotyped entry inhibition, cell reporter; control for the full effect not named in the record; about a third of the inactives were read at about 46 µM; active = well fitted inhibition curve with a large enough effect; inconclusive = small, poorly fitted or top-dose-only effect, or effect the other way; inactive = flat fitted curve, though single readings scatter; tested in HEK293 cells; about a fifth of its hits are not listed in these tables; also: % is scaled to controls: 0 for no effect and ±100 for the full control effect; luciferase read-out
StopGo reporter: FMDV 2A StopGo reporter, luciferase signal | human cells with a luciferase reporter of 2A StopGo recoding; control for the full effect not named in the record | Potency, µM (highest dose often 57.9 µM), inactives show at the highest dose signal change, negative = less light | 1.2% of 410,000 active; active = well fitted falling curve with a large enough effect; inconclusive = small, poorly fitted or top-dose-only effect; inactive = no such curve, though single readings can be large or run the other way; tested in HEK293T cells; also: % is scaled to controls: 0 for no effect and ±100 for the full control effect; nearly all actives have a fitted effect of over 45% in size; luciferase light after 4 h
Cruzain noTriton: blocks cruzain activity in detergent-free assay; Potency, µM, without a hit: max response, negative = inhibition, most hits filed as inhibitors; 2.3% of 200,000 active; purified cruzain, Z-FR-AMC fluorescence, no detergent; P25779;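 also: plate controls were enzyme without inhibitor for no effect and buffer without enzyme for full effect; nearly all actives have a fitted effect of over 40% in size; top concentration of the series not given in the record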
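Purified cruzain at 1.5 nM, pre-incubated 15 min with compound at room temperature in 100 mM sodium acetate pH 5.5, 5 mM DTT, 0.00005% Triton X-100. Reaction started with 2 uM Z-FR-AMC; AMC fluorescence increase over 60 s gives rate.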
Starred values were filed as active, the others as inactive; ? = inconclusive; · = no result given; & = joins results of further samples; [ ] = another dose, or the depositor's remark. Unless noted, calls follow the shape of the dose curve; as a rule, active = well fitted curve in the direction sought with a large enough effect; inconclusive = small, poorly fitted or top-dose-only effect, or another doubt; inactive = no such curve, though single readings can be large; an effect the other way counts as inactive or inconclusive. Potency is read from the fitted curve at half-maximal effect.

SMILES	LASV entry inh	Cruzain inh Det	SARS PLP yeast	NS1 function inh	RE007 growth inh	Marburg entry inh	StopGo reporter	Cruzain noTriton
O=C(OCc1ccccc1F)c1ccc(-c2nnn(Cc3ccccc3)n2)cc1	5%[46.1 µM]	5.7%	·	·	·	-9%[46.1 µM]	-3%	23%
CN(CCc1ccccn1)C(=S)Nc1ccc(Cl)c(Cl)c1	-8%	·	-1%	-11%	-7%	?	61%[activator]	·
COc1ccc2c(c1)C(=O)OC2CC(=O)O (centres undefined)	-4%	4.1%	?	-7%	11%	14%	5%	1%
O=C(CN1C(=O)/C(=C/c2ccco2)SC1=S)NC1CCS(=O)(=O)C1 (centres undefined)	·	·	-11%	10%	-1%	·	-5%	·
CC(C)C(C(=O)Nc1sc2c(c1C#N)CCCCC2)N1C(=O)c2ccccc2C1=O (centres undefined)	-15%	5.0%	3%	?	-10%	0%	-20%	?
c1ccc(Cc2nn3c(COc4ccccc4)nnc3s2)cc1	-13%	3.8%	0%	-118%	6%	11%	115%[activator]	-14%
Cc1ccc(C2/C(=C(\O)c3c(C)nc4ccccn34)C(=O)C(=O)N2CCN(C)C)o1 (centres undefined)	?	·	-1%	4%	86%	?	-4%	·
CCOc1ccc2c(c1)s/c(=N\S(=O)(=O)c1ccc(OC)cc1)n2C(F)F	-9%	3.7%	·	-9%	-5%	-17%	16%	-8%
COc1ccc(C(=O)N(Cc2ccc(N(C)C)cc2)CC2CCCO2)cc1 (centres undefined)	?	-0.8%	·	·	·	6%[46.1 µM]	12%	-13%
CC(NC(=O)CCc1ccccc1)c1cc2c(cc1Cl)OCCO2 (centres undefined)	-12%	-3.4%	-1%	-17%	17%	-23%	-21%	-5%
CCOC(=O)CCC(=O)c1c(C)oc2ccc(OC)cc12	12%	-4.8%	1%	-18%	24%	-14%	-27%	2%
CCC(=O)NC(=S)Nc1ccc(NC(=O)c2cc3ccccc3o2)c(OC)c1	3%[46.1 µM]	·	-1%	-1%	6%	?	-1%	·
CCOC(=O)C1(Cc2cccc(OC)c2)CCN(Cc2cccc(OC)c2O)CC1	?	·	0%	-6%	?	?	25µM*	·
C/C(=N/NC(=O)c1ccncc1)c1ccccc1	-2%	·	-1%	1%	-7%	?	30%	·
CCCN(CCC)C(=O)C1CCCN(S(=O)(=O)c2cc(Br)cc3c2N(C(=O)CC)CC3)C1 (centres undefined)	20%[46.1 µM]	-4.7%	·	·	·	5%[46.1 µM]	2%	?
O=C(Nc1nc(-c2ccccn2)cs1)Nc1ccc(F)cc1F	?	·	-15%	-24%	-4%	?	-7%	·
O=C(OC12CC3CC(CC(C3)C1)C2)c1ccc(NCc2cc(O)ccc2O)cc1	10µM*	·	·	·	?	4.5µM*	13µM*	·
C=CCOc1ccc(C(=O)O)cc1Cl	·	·	0%	-90%	2%	·	-2%	·
O=[N+]([O-])c1ccc(O)c(/C=N/n2cnc3ccccc32)c1	-23%	-3.1%	2%	-4%	-14%	?	0%	?
COc1cccc(-c2cc(C(=O)N3C(C)CCCC3C)no2)c1 (centres undefined)	-7%	-7.5%	-5%	-105%	2%	?	81%[activator]	5%
Cc1ccc(-c2cc(C(=O)O)c3ccccc3n2)s1	·	·	-3%	3%	-27%	·	36%[activator]	·
Cc1cc(NC(=O)CSc2ncnc3c2cnn3-c2ccccc2)no1	1%	·	0%	·	-3%	4%[46.1 µM]	8%	·
COC(=O)CN1C(=S)N(c2ccc(F)cc2)C(=O)C1CC(=O)Nc1ccccc1 (centres undefined)	-3%	·	-2%	13%	-4%	12%	-20%	·
O=c1[nH]nc(SCc2nc3ccccc3s2)n1C1CC1	·	·	0%	1%	-1%	·	4%	·
Cc1cccc(C#N)c1NC1=CC(=O)CC(C)(C)C1	-5%	2.1%	4%	?	16%	2%	13%	5%
O=C(OCc1cc(Cl)cc2c1OCOC2)c1cccnc1Cl	21%	·	13%	·	-14%	-1%	0%	·
O=C(O)c1ccc(Cl)c(S(=O)(=O)N2CCCC2)c1	·	·	1%	3%	13%	·	-6%	·
Cc1cc(C)cc(N2C(=O)CCN(Cc3ccccc3)C2=O)c1	27%	·	1%	2%	2%	?	-18%	·
Cc1noc(C)c1COc1cccc(C(=O)Nc2ccc(C#N)cc2)c1	?	-6.0%	-12%	-40%	-11%	?	?	-14%
Nc1nc(Br)c2c(F)cccc2c1-c1ccc(F)cc1	6%	-3.4%	1%	-7%	-4%	-20%	-25%	-12%
CCCCN(C(=O)c1ccc2c(c1)OCCO2)c1c(N)n(CC(C)C)c(=O)[nH]c1=O	-17%	·	-6%	·	-11%	1%	-2%	·
CCC1=NN(C(=O)c2ccccc2O)C(O)(c2ccccc2)C1 (centres undefined)	·	·	0%	-13%	-3%	·	-8%	·
Cc1ccc(NC(=O)c2cc(S(=O)(=O)N3CCCC3)c[nH]2)c(C)c1	5%[46.1 µM]	0.1%	-11%	-9%	0%	·	-8%&1%	-6%
CCOc1ccc(NC(=O)c2ccc3c(c2)nnn3C2CCCC2)cc1	-2%[46.1 µM]	-0.6%	·	·	·	·	-11%	-6%
CCOc1ccccc1Oc1coc2cc(OCC(=O)O)ccc2c1=O	2%[46.1 µM]	·	1%	9%	10%	5%[46.1 µM]	-3%	·
O=C1N(CN2CCC3(CC2)OCCO3)c2ccccc2C12OCCCO2	-7%	-0.2%	-3%	-6%	4%	11%	-18%	6%
C=CCOc1c(Br)cc(CNc2ccc(NC(=O)C(C)C)cc2)cc1OCC	13%	-7.6%	5%	10%	-9%	7%	-28%	?
CCOc1ccc(N2C(=O)Nc3ccccc3C2(O)C(=O)NCc2ccco2)cc1 (centres undefined)	4%	·	5%	·	17%	-2%	1%	·
CCCCCC(=O)Nc1sc(C)c(C)c1C#N	?	-9.0%	-11%	-16%	-15%	3%	52%[activator]	-7%
COc1cc(OC)c(/C=N/NC(N)=S)cc1Br	?	0.18µM*	23%	18%	5%	?	-7%	0.25µM*
C=CCNC(=O)CSc1ncc2c(n1)-c1c(csc1SC)CC2	6%	·	-2%	-4%	10%	4%&4%	-27%	·
Cn1c(-c2sc3cc(C(F)(F)F)cnc3c2-c2ccccn2)n[nH]c1=S	1%[46.1 µM]	·	-1%	11%	-21%	-2%[46.1 µM]	2%	·
Cc1ccc(OC(=O)C2CCN(C(=O)c3ccccc3C)CC2)c(Br)c1	-5%	·	-12%	·	-1%	-2%	-19%	·
COc1cc(N/C(N)=N/c2nc(C)cc(C)n2)c(OC)cc1Cl	-23%	·	3%	5%	-3%	9.2µM*	?	·
COc1ccc(Cn2ccc3nc(C)c(C(=O)NCc4ccc(SC)cc4)cc3c2=O)cc1	-6%[46.1 µM]	-1.1%	·	·	·	·	-12%	-8%
CSC(=NC#N)N1CCN(C(=NC#N)SC)CC1	-28%[46.1 µM]	·	1%	5%	1%	?	-14%	·
COc1ccc(Cl)cc1N(CC(=O)Nc1ccccc1C(=O)N1CCCC1)S(C)(=O)=O	-4%	·	11%	1%	6%	1%[46.1 µM]	-11%	·
CC1CC(C)CN(C(=O)COC(=O)c2ccc[nH]c2=O)C1 (centres undefined)	9%	2.2%	1%	2%	-21%	17%	-16%	3%
CC(=O)Nc1ccc(NC(=O)CSc2nnnn2-c2ccc3c(c2)OCCO3)cc1	-1%	·	1%	?	10%	2%	-24%	·
COc1ccccc1NC(=O)c1c(C)nc2ccccc2c1C(=O)O	9%	·	1%	0%	7%	8%[46.1 µM]	-10%	·
CCn1c(C(=O)NCc2ccccc2Cl)cc2sc(Cl)cc21	·	-4.3%	·	·	·	?	34%[activator]	0%
CCSc1nnc(NC(=O)CSc2nccn2-c2cc(C)cc(C)c2)s1	5%	-4.4%	-5%	-33%	-19%	-12%[46.1 µM]	-23%	2%
Cc1cccc(N2CCC(NCc3c(C(=O)N4CCCCC4)nc4c(C)cccn34)CC2)c1	10%	·	1%	-2%	-20%	?	-28%	·
COc1ccc(NC(=O)CN(c2cccc(F)c2)S(C)(=O)=O)cc1OC	-3%	1.5%	-10%	10%	4%	?	·	-1%
CN(CC(=O)Nc1ccc(S(=O)(=O)N2CCCC2)cc1)Cc1c(F)cccc1Cl	?	·	-2%	·	19%	5µM*	?	·
O=C(O)c1ccc(SCc2ccccc2)nc1	-18%	·	·	·	-18%	?	64%[activator]	·
Cn1nnnc1N=N/C(=N/Nc1ccccc1)c1ccccc1	?	·	-6%	-73%	?	1µM*	-6%	·
Cc1ccc(N2CC(C(=O)Nc3nnc(SCCC4OCCO4)s3)CC2=O)cc1 (centres undefined)	0%	·	13%	?	9%	-4%	-21%	·
CCC(Oc1cc(Cl)ccc1Cl)C(=O)N1CCCN(C)CC1 (centres undefined)	16%	·	-2%	-5%	7%	-29%	-8%	·
Cc1ccccc1N1CCN(C(=O)NCc2cccc(Cl)c2)CC1	-24%	·	-9%	-24%	-6%	-2%[46.1 µM]	-13%	·
More results follow:
SMILES	LASV entry inh	Cruzain inh Det	SARS PLP yeast	NS1 function inh	RE007 growth inh	Marburg entry inh	StopGo reporter	Cruzain noTriton
COc1ccc(C(=O)Nc2ccc3ccccc3n2)cc1OC	·	·	-3%	-2%	-17%	·	56%[activator]	·
O=C(O)c1cc(S(=O)(=O)Nc2ccccc2Cc2ccccc2)ccc1Cl	-1%[46.1 µM]	·	-2%	14%	-2%	-15%[46.1 µM]	0%	·
O=C(Nc1ccncc1)C1CCN(S(=O)(=O)c2ccccc2)CC1	1%	·	10%	·	2%	-23%[46.1 µM]	-14%	·
CC(C)c1ccc(N2CC(C)(C)C2=O)cc1	-16%	·	-2%	·	6%	0%[46.1 µM]	32%[activator]	·
NC(=O)C1(N2CCCCC2)CCN(c2nc(-c3ccccc3)cs2)CC1	-29%	2.7%	2%	-30%	-16%	?	?	2%
Cc1ccc(Cn2c(=S)[nH]c3ccc(N4CCOCC4)cc3c2=O)o1	?	-17%	2%	?	5%	2%&2%	?	-7%

Assay outcomes: PubChem, National Center for Advancing Translational Sciences (NCATS)
